Compound activity deposited in PubChem BioAssay by National Center for Advancing Translational Sciences (NCATS).
VACV Venus inh: qHTS for Stage-Specific Inhibitors of Vaccinia Orthopoxvirus: Venus Reporter Primary qHTS. actives 0.46% (n = 330,000). AID 720580, 2013. Vaccinia virus Venus reporter expression, fluorescence. Potency, µM (highest dose often 36.5 µM), for inactives: top-dose activity change, negative = inhibition, actives largely listed as inhibitors; active means well fitted inhibition curve with a large enough effect; inconclusive means small, poorly fitted or top-dose-only effect; inactive means no such curve, though single readings can be large or run the other way; tested in A549 cells; also: nearly all actives have a fitted effect of over 30% in size; inactives centre near -10
Vaccinia mCherry: qHTS for Stage-Specific Inhibitors of Vaccinia Orthopoxvirus: mCherry Reporter Primary qHTS | Vaccinia virus mCherry reporter infection, fluorescence; about a quarter of the inactives have no number | Potency, µM (doses to about 36.5 µM), for inactives: at the highest dose activity change, negative = inhibition, actives largely listed as inhibitors | actives 0.63% (n = 310,000); active = well fitted inhibition curve with a large enough effect; inconclusive = small, poorly fitted or top-dose-only effect; inactive = no such curve, though single readings can be large or run the other way; tested in A549 cells; also: nearly all actives have a fitted effect of over 35% in size; inactives centre near -10
Starred values were filed as active, the others as inactive; i = inactive; u = inconclusive; x = no result given; & = joins results of further samples; [ ] = another dose, or the depositor's remark. % is scaled to controls: 0 for no effect and ±100 for the full control effect; potency is read from the fitted curve at half-maximal effect.

SMILES	VACV Venus inh	Vaccinia mCherry
O=C(CSCc1ccccc1)NCCCN1CCOCC1	-22%	-27%
CCn1c(SCC(=O)N2CCOCC2)nc2ccccc21	-3%	i
CCCCN1C(N)=NC[C@@H]1Cc1ccc(O)cc1	-6%	-16%
O=C(Nc1ccc2c(c1)C(=O)NC2=O)c1ccc(Cl)s1	-8%	i
CN(Cc1ccccc1)c1nc2c(c(=O)[nH]c(=O)n2C)n1CCCc1ccccc1	-29%	-16%
COc1cc(OC)cc(C(=O)NCCOC23CC4CC(CC(C4)C2)C3)c1	-16%	-11%
N#CC(c1cccc([N+](=O)[O-])c1)C(CC(=O)c1ccccc1)c1ccccc1 (centres undefined)	-21%	-17%
CCc1ccc(NC(=O)CN2C(=O)C3CCCN3c3ccc(S(=O)(=O)N(CC)CC)cc32)cc1 (centres undefined)	-7%	-3%
Cc1cc(Nc2ccc(F)cc2)c2ccccc2n1	-20%	-18%
CCC(CC)C(=O)N1CC(=O)Nc2ccc(Br)cc2C1c1ccccc1 (centres undefined)	-5%	4%
CN(C)c1ccc(/C=N/NC(=O)c2ccn(C)n2)cc1	-15%	-3%
CC(=Nc1ccccc1C(F)(F)F)c1ccncc1	-2%	i
Cc1ccccc1C1CC(=O)NC2=C1C(=O)CCC2 (centres undefined)	u	x
COc1ccc(CNC(=O)CNC(=O)c2ccc(Br)o2)cc1OC	-11%	-3%
CCc1ccccc1NS(=O)(=O)c1ccc2oc(=O)c3ncn(C)c3c2c1	-8%	-10%
OCCN(CC#CC(O)(c1ccccc1)C1CCCC1)CCO (centres undefined)	-2%	x
CCc1noc(C)c1C(=O)N1CCN(S(=O)(=O)c2c(C)c(C)cc(C)c2C)CC1	-3%	-6%
Cc1cccc(-n2cnc3cc(C(=O)NCCN4CCOCC4)ccc32)c1	-10%	-5%
COc1cc(OC)cc(C(=O)N[C@H](C(=O)OCC(=O)Nc2ccc(C)cc2C)C(C)C)c1	-8%	-20%
c1ccc(Cn2nnc3c(NCC4CC4)ncnc32)cc1	-5%	i
O=S(=O)(Nc1cccc(S(=O)(=O)N2CCCC2)c1)c1ccc(F)cc1	-12%	-14%
COc1cc(-c2nnc(SCCOc3ccc(Cl)cc3)o2)cc(OC)c1OC	3%	-15%
CCCCC(=O)Nc1cc([N+](=O)[O-])ccc1Cl	-16%	-2%
CC(C)(C)C(=O)COC(=O)C1CC(=O)N(c2ccccc2)C1 (centres undefined)	-1%	i
CC1CCN(C(=O)CSc2nnc(CNC(=O)c3ccc(S(=O)(=O)N(C)C)cc3)o2)CC1	-12%	-3%
COc1ccc(CCNC(=O)c2cc(S(=O)(=O)N3CCOCC3)ccc2N2CCCC2)cc1OC	1%	-14%
Cc1ccc(C(=O)O)cc1-n1c(C)ccc1-c1ccccc1	-2%	-4%
Cc1csc(NC(=O)CSc2ncc(-c3ccccc3)[nH]2)n1	-3%	i
N#Cc1c(N)nc2c(c1N)CC(CCl)O2 (centres undefined)	-4%	-13%
COc1ccccc1NCc1ccc([N+](=O)[O-])s1	-11%	-12%

Four entries from above, with two lines to a compound:
The line under a structure holds: VACV Venus inh | Vaccinia mCherry
Cc1ccc(C(=O)O)cc1-n1c(C)ccc1-c1ccccc1
 : -2% | -4%
N#Cc1c(N)nc2c(c1N)CC(CCl)O2 (centres undefined)
 : -4% | -13%
O=S(=O)(Nc1cccc(S(=O)(=O)N2CCCC2)c1)c1ccc(F)cc1
 : -12% | -14%
CC(C)(C)C(=O)COC(=O)C1CC(=O)N(c2ccccc2)C1 (centres undefined)
 : -1% | i

Other results follow:
SMILES	VACV Venus inh	Vaccinia mCherry
CCOc1ccc(C(C)=O)cc1COc1cccnc1[N+](=O)[O-]	-13%	-22%
COc1ccc(NC(=S)N(CCc2nc3cc(C)c(C)cc3[nH]2)Cc2cccnc2)cc1	-16%	u
CC(C)C[C@@H]1CN(CCCC[C@H]2CNC(=O)C(=O)N2CCC2CCCCC2)C(=O)C(=O)N1CC1CCCCC1	-4%	-2%
COCc1cccc(-c2csc(C(C)(NC(C)=O)c3ccc(OC)cc3)n2)c1 (centres undefined)	-6%	-18%
Cc1cc(C(=O)CN2C(=O)C(=O)N(Cc3ccco3)C2=O)c(C)n1CCc1ccccc1	u	u
CN(CCC#N)S(=O)(=O)c1ccc2[nH]cc(C(=O)NCCc3ccccc3)c(=O)c2c1	-9%	i
COc1ccc(C2=CC(c3ccc4c(c3)OCO4)c3c(c4ccccc4oc3=O)O2)cc1OC (centres undefined)	-22%	u
O=C1C2C3CCCC3=C3CCCC3C2C(=O)N1c1cccc(Cl)c1 (centres undefined)	-26%	u
O=[N+]([O-])c1cccc2[nH]ncc12	-7%	-14%
COc1cc(C(=O)Nc2ccc(C#N)cc2)c([N+](=O)[O-])cc1OC	-2%	-8%
COC(=O)c1cccc(NC(=O)C(C)(C)C)c1	-7%	i
CC(=O)c1ccc(NC2c3ncccc3C(=O)N2Cc2ccc(F)cc2)cc1 (centres undefined)	4%	-11%
CN(CC(=O)Nc1ccc(F)cc1)C(=O)COC(=O)C1CCN(c2ccc(C(F)(F)F)cn2)CC1	-8%	i
C=CCn1c(CC(C)(C)C)nc2ccccc21	-10%	-1%
CC(C)c1cccc(C(C)C)c1NC(=O)COC(=O)c1ccc(OCC(=O)Nc2cccc(C(F)(F)F)c2)cc1	-17%	i
COc1ccc(NC(=O)CSc2nnc(CCC(=O)Nc3ccc(C)c(Cl)c3)n2C)cc1	2%	u
O=C(c1n[nH]c2c1CCCC2)N1CCOc2ccc(C(O)C(c3ccccc3)c3ccccc3)cc2C1 (centres undefined)	-15%	-16%
Cc1ccc(C)c(NC(=O)Cn2c(=O)nc(-c3ccccc3)c3ccccc32)c1	-20%	-24%
N#Cc1cccc(NC(=O)CSc2sc3c(O)cc(=O)[nH]c3c2C#N)c1	-7%	13%
CCOC(=O)C1(C(=O)OCC)C(c2ccccc2)CC(O)N1C(C)=O (centres undefined)	-4%	-3%
COc1cc(NS(=O)(=O)c2ccc(NC(=O)/C=C/C(=O)O)cc2)nc(OC)n1	-22%	i
O=C(c1ccccc1Cl)N1CCCCC1CCN1CCCCC1 (centres undefined)	-10%	i
O=C(C(c1ccccc1)c1ccccc1)N1CCOCC1	-5%	-14%
COc1cccc(-c2nc(CS(=O)CC(=O)NCCc3ccc(C)cc3)c(C)o2)c1 (centres undefined)	-15%	i
CC(NC(=O)/C(=C\c1cccc([N+](=O)[O-])c1)NC(=O)c1ccco1)C(=O)O (centres undefined)	-8%	-13%
O=C(O)c1ccccc1C(=O)NCCCn1ccnc1	-12%	i
CCCCCCSc1cc(-c2nc3ccc(Cl)cn3c2NC2CCCCC2)ccc1OC	-14%	-5%
CC1=C(C(=O)OCc2ccccc2)C(c2ccc(C#N)cc2)NC(=O)N1CCCC(=O)O (centres undefined)	-2%	-6%
CCOC(=O)c1cc(S(=O)(=O)NCc2cccc(Cl)c2)[nH]n1	-6%	-10%
COc1ccc(-c2oc3c(OC)c(OC)c(OC)c(O)c3c(=O)c2OC)cc1OC	u	u
CCN(Cc1nc(-c2ccc(Cl)cc2)no1)CC1CCCO1 (centres undefined)	-10%	i
CS(=O)(=O)N(CC(=O)Nc1ccc(Br)cc1)C1CCCCC1	u	-20%
N/C(Cc1nc(-c2ccc(Br)cc2)cs1)=N\O	-11%	-15%
COc1ccc(-n2nc(C(=O)NCC(=O)NCCCN3CC(C)CC(C)C3)c3ccccc3c2=O)cc1 (centres undefined)	-4%	-10%
CCOC(=O)c1cc(NC(=O)c2ccc(Cl)cc2)c(=O)n2c1oc1ccccc12	1%	-1%
Cc1ccccc1NC(=O)Cn1c(=O)n(Cc2ccccc2)c(=O)c2sc3ccccc3c21	-20%	-19%
CC(/C=C/C=C/c1ccccc1)=N/NC(=O)CNc1ccccc1C	-6%	i
c1ccc2nccnc2c1	3.5µM*	11µM*
CCOc1ccc(N2C(=O)CC(N3CCC(NC(=O)Nc4ccccc4)CC3)C2=O)cc1 (centres undefined)	-8%	x
Cc1ccc(-n2ncc(C(=O)NCc3ccco3)c2C2CCN(C(=O)OC(C)(C)C)CC2)cc1C	-19%	-25%

Two neighbouring compounds from above, quoted:
SMILES	VACV Venus inh	Vaccinia mCherry
CS(=O)(=O)N(CC(=O)Nc1ccc(Br)cc1)C1CCCCC1	u	-20%
N/C(Cc1nc(-c2ccc(Br)cc2)cs1)=N\O	-11%	-15%

Later entries:
SMILES	VACV Venus inh	Vaccinia mCherry
CS(=O)(=O)c1ccc(C(=O)NCc2ccccc2F)cc1	-7%	-2%
CSC1=C(C#N)C(c2sccc2C)CC(=O)N1 (centres undefined)	-19%	i
Cc1ccc(OCC(=O)O/N=C(\N)Cc2ccc([N+](=O)[O-])cc2)cc1C	-10%	-12%
COC(=O)CCCN=C1SCCN1Cc1ccccc1	11%	-5%
O=C1CC(c2ccco2)CC(O)=C1C=NCC1CCNCC1 (centres undefined)	-17%	i
COC(=O)c1cc(C(=O)Nc2cccc(C)n2)cc([N+](=O)[O-])c1	-2%	x
COc1ccc(/C(C)=N/Nc2nc3ccccc3n3cnnc23)cc1OC	-10%	i
Clc1cccc(Cc2c(C3CCCCC3)nc3c4ccccc4ccn23)c1	16%	34%[activator]
Clc1cccc(CSc2nncn3c2cc2sccc23)c1	-7%	-15%
Cc1cccc(NC(c2ccccc2C)c2ccc3ccc(C)nc3c2O)n1 (centres undefined)	-16%	u
COc1ccc(NC(=O)CSc2nc3sc(C)cc3c(=O)n2C)cc1	9%	2%
CCOc1ccc(N2CC(C(=O)NCc3cccc(C)c3)CC2=O)cc1 (centres undefined)	-18%	-12%
COc1ccc(CNc2nc(NCc3ccc(OC)c(OC)c3)n(C(=O)c3cccs3)n2)cc1OC	-14%	-26%
Cc1ccc(S(=O)(=O)N2CCN(C(=O)COC(=O)c3ccc(Cl)c(S(N)(=O)=O)c3)CC2)c(C)c1	-4%	-11%
O=C(c1cccs1)N1C[C@H](O)[C@@H](n2cc(C3CC3)nn2)C[C@@H]1c1ccccc1	-10%	-15%
Cc1ccc(-c2nnc(-c3ccccc3)o2)cc1	1%	-3%
COC(=O)[C@@H]1C[C@]2(C(=O)O)c3ccccc3N(OOSc3ccccc3)[C@@H]2N1C(=O)OC	-12%	i
C/C(CC(=O)NC(C)(C)C)=N\NC(=O)c1ccco1	0%	-11%
COC(=O)c1cc(NC(=O)Cc2cc(OC)c(OC)c(OC)c2)cc(C(=O)OC)c1	-14%	-10%
CCN(CC)C(=O)COc1coc(CN2CCN(c3ccccc3)CC2)cc1=O	-14%	-18%
Cc1ccc(C(=O)Nc2ccc(NC(=O)c3ccc(C)o3)cc2)o1	7%	18%
Brc1ccccc1CN1CCN(Cc2c[nH]c3ccccc23)CC1	u	-30%
CC12CCC(C)(O1)C1C(=O)N(c3nccs3)C(=O)C12 (centres undefined)	-5%	i
O=C(CCCc1nc2ccccc2s1)Nc1ccc(N2CCOCC2)cc1	-11%	-18%
O=C1CCc2cc(S(=O)(=O)Nc3ccc(F)cc3)cc3c2N1CC3	-11%	i
COc1ccc(C(C)(C)C)cc1NC(=O)COC(=O)C(C)C	-1%	-8%
CC(C)CC(=O)NC(NC(=S)Nc1cccc2cccnc12)C(Cl)(Cl)Cl (centres undefined)	u	x
C=CCNC(=O)c1onc(CSc2cc(C)ccc2C)c1C(=O)O	-11%	-15%
CCc1nnc(NC(=O)CSc2nccn2Cc2ccccc2)s1	-3%	-3%
C=CCNc1nc2cc(-c3ccccc3OC)sc2c(=O)n1C	-14%	20%
CCOc1ccccc1N(C(=O)CNC(=O)c1ccco1)C(C(=O)NC1CCCC1)c1cccnc1 (centres undefined)	-6%	-13%
CCc1ccc(CCC(=O)Nc2ccc(C(C)=O)cc2)o1	7%	-1%
CN(C)c1ccc(C(=O)NNC(=O)Nc2ccccc2)cc1	-3%	-4%
COc1ccc(CNC(=O)CCn2nc(C)c3c(C)n(-c4ccccc4)nc3c2=O)c(OC)c1	-12%&-12%	-15%
COc1ccccc1CN1CC(C(=O)NC2(c3ccccc3)CC2)CCC1=O (centres undefined)	-17%	i
CNc1c(Cl)cc(/C=C2\C=Cc3ccccc32)cc1Cl	-3%	31%[activator]
CC(=O)Oc1cc(O)c2c(c1)OC(c1ccc(OC(C)=O)c(OC(C)=O)c1)C(OC(C)=O)C2=O (centres undefined)	-28%	-13%
N=c1sccn1CC(=O)NC(c1ccccc1)c1ccccc1	-11%	-24%
CCOC(=O)c1cc(-c2ccccc2)nc2c(O)cccc12	-16%	u
Cn1c(O)c(C=NCc2cccs2)c(=O)n(C)c1=O	-14%	i

The last 5 compounds of the section above come first, to join the parts.
SMILES	VACV Venus inh	Vaccinia mCherry
CNc1c(Cl)cc(/C=C2\C=Cc3ccccc32)cc1Cl	-3%	31%[activator]
CC(=O)Oc1cc(O)c2c(c1)OC(c1ccc(OC(C)=O)c(OC(C)=O)c1)C(OC(C)=O)C2=O (centres undefined)	-28%	-13%
N=c1sccn1CC(=O)NC(c1ccccc1)c1ccccc1	-11%	-24%
CCOC(=O)c1cc(-c2ccccc2)nc2c(O)cccc12	-16%	u
Cn1c(O)c(C=NCc2cccs2)c(=O)n(C)c1=O	-14%	i
COCCSc1nc(N)c(NC(=O)c2ccco2)c(=O)[nH]1	-11%	-17%
COc1ccc2c(c1)cc1c(=O)n(CC(=O)NC(C)CCc3ccccc3)nc(C)n12 (centres undefined)	4%	-4%
O=[N+]([O-])c1cccc(/C=N/n2cnnc2)c1O	-2%	i
Cn1ccsc1=NC(=O)c1ccc(S(C)(=O)=O)cc1	-12%	-12%
